Assay outcomes (PubChem)
Sfp PPTase inh: qHTS Assay for Inhibitors of Bacillus subtilis Sfp phosphopantetheinyl transferase (PPTase) | Biochemical Sfp PPTase activity, qHTS | Potency, µM, for inactives: max response, negative = inhibition, actives largely listed as inhibitors | 3.5% of 310,000 active | AID 1490, 2009; active = well fitted inhibition curve with a large enough effect; inconclusive = small, poorly fitted or top-dose-only effect, or another doubt; inactive = no such curve, though single readings can be large or run the other way;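 also: the enzyme is Sfp with the accession as filed and its product quenches rhodamine fluorescence; potency is read from the fitted curve at half-maximal effect; 0% = enzyme reaction without inhibitor and -100% = no enzyme wells; top concentration of the series not given in the record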
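Reaction rates are the 30-min fluorescence difference (ex 525, em 598 nm) in wells containing 15 nM Sfp, 5 uM rhodamine-CoA and 12.5 uM BHQ-2-YbbR at pH 7.6 with 10 mM MgCl2.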
Menin MLL FP FL: qHTS Assay for Inhibitors Targeting the Menin-MLL Interaction in MLL Related Leukemias: Competition With Fluorescein Labeled MLL-derived Peptide; FP activity change, % at 61.4 µM; 290,000 tested, under 10 active; Fluorescence polarization, fluorescein-MLL peptide displacement from menin; inconclusive = falling polarisation curve, or a change in total fluorescence; inactive = total fluorescence flat and polarisation flat or rising; no compound was filed as active; the % refers to the polarisation; negative = inhibition;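 also: % of control where 0% means no effect; inhibitors lower the polarisation; unlabelled MLL peptide was the positive control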
The depositor's hits bear a star; ? = inconclusive; & = joins results of further samples; [ ] = remark or other dose. The list is partial, so the mix of outcomes need not match the whole.

1) CC[C@H](C)[C@H](NC(=O)[C@H](C)NC(=O)[C@H](CC(N)=O)NC(=O)[C@H](CCCCN)NC(=O)[C@H](Cc1ccccc1)NC(=O)[C@H](CC(C)C)NC(=O)[C@@H](NC(=O)[C@@H](NC(=O)[C@H](CC(C)C)NC(=O)[C@@H]1CCCN1C(=O)[C@@H](NC(=O)[C@H](CCC(N)=O)NC(=O)[C@H](CO)NC(=O)[C@H](CCCCN)NC(=O)[C@H](CCC(=O)O)NC(=O)[C@H](CO)NC(=O)[C@@H](NC(=O)[C@H](CCSC)NC(=O)[C@H](Cc1ccccc1)NC(=O)CNC(=O)CNC(=O)[C@@H](N)Cc1ccc(O)cc1)[C@@H](C)O)[C@@H](C)O)C(C)C)[C@@H](C)O)C(=O)N[C@H](C(=O)N[C@@H](CCCCN)C(=O)N[C@@H](CC(N)=O)C(=O)N[C@@H](C)C(=O)N[C@@H](Cc1ccc(O)cc1)C(=O)N[C@@H](CCCCN)C(=O)N[C@@H](CCCCN)C(=O)NCC(=O)N[C@@H](CCC(=O)O)C(=O)O)[C@@H](C)CC
2) F[Si-2](F)(F)(F)(F)F
3) COC(=O)C1(C)C=C2C(=C(c3ccccc3)C(=O)C2C)CN1 (stereo not drawn)
4) COc1ccc(C(=O)[C@]2(C)C=C(c3ccc(OC)cc3)[C@H](C)C2)cc1
5) CCCCCCCCCCCCC/C=C/[C@@H](O)[C@H](COP(=O)([O-])OCC[N+](C)(C)C)NC(=O)CCCCCCCCCCCCCCCCC
6) CC1=C(C2=C(C)C(C(C)C)C3=C(C(=O)C(O)C3O)C2O)C(O)C2=C(C(O)C(O)C2=O)C1C(C)C (stereo not drawn)
7) CS(=O)(=O)N1CCC[C@@]2(CCN(C(=O)Nc3cccc(F)c3)C2)C1
8) O=C(c1ccncc1)N1CCC2(CCCN(c3ccc(-c4ccccc4)cc3)C2)CC1

Compound	1	2	3	4	5	6	7	8
Sfp PPTase inh	1%&11%	-3%	17%	9%	26%	16%	0%	-21%
Menin MLL FP FL	-5.6	1.9	?	23	3.1	-5.8	-0.2	14

9) CCOC(=O)CCCCC1=CC2=CC(=O)C(C)(O)C(=O)C2=CO1 (stereo not drawn)
10) CCCCNc1nc(C)nc2c1nc(-c1ccccc1)n2CCCCN(CC)CC
11) O=C(Oc1ccccc1)N1CCC2(CCCN(c3ccncc3)C2)CC1
12) COC1=CC(C)C2CC3OC(=O)CC4C(C)=C(OC)C(=O)C([C@]2(C)C1=O)[C@]34C (stereo partly drawn)
13) COC(=O)[C@H](Cc1ccccc1)NC(=O)[C@@H](C)CO
14) COC(=O)N1CCC2(CCCN(Cc3ccccc3)C2)CC1
15) Nc1nc(=S)c2ncn([C@H]3O[C@@H](CO)[C@@H](O)[C@@H]3O)c2[nH]1
16) CN(Cc1ccccc1)C(=O)[C@H](Cc1ccc2ccccc2c1)NC(=O)[C@@H]1CCCN1C(=O)Nc1ccccc1[N+](=O)[O-]

Compound	9	10	11	12	13	14	15	16
Sfp PPTase inh	2%	23%	24%	-4%	3%	-4%	11µM*	9%
Menin MLL FP FL	2.7[11.7 µM]	1.5	-2.6	-3.7	2.6[11.7 µM]	-2.2	0.4[24.8 µM]	0.5

17) COCCNc1cc(-c2ccccc2C)ncn1
18) COC(=O)c1ccc(C(NC(=O)OCc2ccccc2)/C(=C/[C@@H](C)C(=O)NCc2ccncc2)c2cccnc2)cc1 (stereo partly drawn)
19) CCOc1ccccc1-c1nnc2n1N=C(c1ccc(OC)cc1)CS2
20) CC1(OC(=O)c2cccs2)C(=O)C=C2C=C(c3ccc(C#N)cc3)OC=C2C1=O (stereo not drawn)
21) CC(C)NC(=O)N1CC[C@@]2(CCCN(C(=O)c3ccco3)C2)C1
22) O=C(c1ccncc1)N1CCC2(CC1)CCN(c1ccncc1)CC2
23) CCC/C=C(\CCC)C(NS(=O)(=O)c1cccs1)c1ccc(C(=O)OC)cc1 (stereo not drawn)
24) Clc1ccccc1-c1cc(NCc2ccccc2)ncn1

Compound	17	18	19	20	21	22	23	24
Sfp PPTase inh	-20%	14%	-24%	-20%&-6%	-10%	25%	22%	18%
Menin MLL FP FL	0.7	-1.5	0.2	6.5&3.0	-0.6	-0.6	-6.9	-1.0

25) Fc1ccc(-c2nc3n(c2-c2ccncc2)CCS3)cc1
26) C[N+]1(CC2COC(c3ccccc3)(C3CCCCC3)O2)CCCCC1 (stereo not drawn)
27) O=C(NC1CCCC1)O[C@@H]1C(=O)c2cc(Br)ccc2O[C@H]1c1ccc2c(c1)OCO2
28) COCC(=O)N1CCC2(CCN(Cc3ccccc3OC)CC2)CC1
29) CCC[C@@H]1C[C@@]1(CCC)[C@@H](NC(=O)Oc1ccccc1)c1ccc(C(=O)OC)cc1
30) Cc1ccc(S(=O)(=O)N2CCc3nc(COc4ccccc4)c4c(c3C2)CO[C@@H](C)C4)cc1
31) CC(=O)OC1CC2C(C)(C)C(=O)CC[C@]2(C)C2CC[C@]3(C)C(=CC(=O)OC3c3ccoc3)[C@]12C (stereo partly drawn)
32) COC(=O)[C@@H]1C[C@@H]2CC[C@@H](O)C[C@@H]2N1CC1CCCCC1

Compound	25	26	27	28	29	30	31	32
Sfp PPTase inh	-4%	3%	-13%	32%[activator]	13%	6%	-12%	18%
Menin MLL FP FL	0.4	-4.4	?	-1.0	0.6	2.1[11.7 µM]	-1.3	8.1

33) O=[N+]([O-])c1c(Cl)cccc1-c1c[nH]cc1Cl
34) CC(=O)OCC1OC(c2ccc3c(c2)OCO3)C=CC1OC(C)=O (stereo not drawn)
35) C/C(CCC(=O)OC[C@@H]1O[C@H](C#Cc2ccccc2)C=C[C@@H]1Oc1ccc(C)cc1)=N/OC[C@@H](O)[C@H]1O[C@H]2OC(C)(C)O[C@H]2[C@@H]1O
36) CC(C)(C)c1ccc(/C=C/C(=O)Nc2ccc3c(c2)OCCO3)cc1
37) CCCn1c(-c2ccc(F)cc2)nc2c(NCCN3CCOCC3)nc(C)nc21
38) CSCC[C@H](NC(=O)[C@H](CO)NC(=O)[C@H](Cc1ccc(O)cc1)NC(=O)[C@@H](N)CO)C(=O)N[C@@H](CCC(=O)O)C(=O)N[C@@H](Cc1cnc[nH]1)C(=O)N[C@@H](Cc1ccccc1)C(=O)N[C@@H](CCCNC(=N)N)C(=O)N[C@@H](Cc1c[nH]c2ccccc12)C(=O)NCC(=O)N[C@@H](CCCCN)C(=O)N1CCC[C@H]1C(=O)N[C@H](C(=O)NCC(=O)N[C@@H](CCCCN)C(=O)N[C@@H](CCCCN)C(=O)N[C@@H](CCCNC(=N)N)C(=O)N[C@@H](CCCNC(=N)N)C(=O)N1CCC[C@H]1C(=O)N[C@H](C(=O)N[C@@H](CCCCN)C(=O)N[C@H](C(=O)N[C@@H](Cc1ccc(O)cc1)C(=O)N1CCC[C@H]1C(=O)O)C(C)C)C(C)C)C(C)C
39) CCCCc1nc2c(c3c1C[C@H](C)OC3)CN(S(=O)(=O)c1ccc(C)cc1)CC2
40) C=CCOC(=O)N[C@H](c1ccco1)C(C(C)=O)C(C)=O

Compound	33	34	35	36	37	38	39	40
Sfp PPTase inh	-3%	-2%	14%	22%	4%	-18%	-10%	-20%
Menin MLL FP FL	1.7	-0.3[11.7 µM]	2.1[11.7 µM]	1.8	3.5	-20	-4.7[11.7 µM]	-1.7

41) COc1ccc(C(=O)Oc2ccc3c(-c4ccc(OC)cc4)cc(=O)oc3c2)cc1
42) O=C(c1ccncc1)N1CCC[C@@]2(CCN(c3ncccn3)C2)C1
43) c1ccc(-c2nc(-c3cccc4ccccc34)c(Nc3ccc4ccccc4c3)o2)cc1
44) CCCCCCCCCCCCCCCC(=O)NC(C)C(=O)O (stereo not drawn)
45) CC(CN(C)C)CN1c2ccccc2Sc2ccc(C(F)(F)F)cc21 (stereo not drawn)
46) C#CCCCCCCCCCCCC(=O)CC(O)COC(C)=O (stereo not drawn)
47) Cc1cccc(CNc2ncncc2-c2cccnc2)c1
48) CCCCC/C=C\C/C=C\C/C=C\C/C=C\CCCCCC(=O)NC(C)C(=O)O (stereo not drawn)

Compound	41	42	43	44	45	46	47	48
Sfp PPTase inh	-6%	20%	0%	12%	-7%	32%[activator]	-2%	-9%
Menin MLL FP FL	0.3	1.0	2.7	-0.8	-1.3	-4.4	1.4	0.0

Brought forward from above: 4 compounds; new compounds follow.
45) CC(CN(C)C)CN1c2ccccc2Sc2ccc(C(F)(F)F)cc21 (stereo not drawn)
46) C#CCCCCCCCCCCCC(=O)CC(O)COC(C)=O (stereo not drawn)
47) Cc1cccc(CNc2ncncc2-c2cccnc2)c1
48) CCCCC/C=C\C/C=C\C/C=C\C/C=C\CCCCCC(=O)NC(C)C(=O)O (stereo not drawn)
49) CC(C)C[C@@H](CC(=O)N[C@H](CC(=O)N[C@@H]1CCNC[C@H]1C(=O)N[C@H](CC(=O)N[C@@H](CCC(=O)O)CC(=O)O)Cc1ccccc1)C(C)C)NC(=O)[C@@H]1CNCC[C@H]1N
50) CCN(CC)CCn1c(-c2ccccc2)nc2c(NCCO)nc(C)nc21
51) c1ccc(-c2nc(-c3cccs3)c(NC3CCCCC3)o2)cc1
52) O=C(O[C@H]1CN2CCC1CC2)N1CCc2ccccc2[C@@H]1c1ccccc1
53) CC[C@@]12C=C(/C=C/c3ccccc3)[C@](CC)(C1)[C@H](c1ccccc1)CC2=O
54) CSCCC(N)C(=O)NC(CC(C)C)C(=O)NC(Cc1ccccc1)C(=O)O (stereo not drawn)
55) COCCNc1ccnc(-c2ccccc2C(F)(F)F)n1
56) COC(=O)NC(/C(C(=O)OC)=C(\C)NCc1ccccc1)c1ccc(Cl)cc1 (stereo not drawn)

Compound	45	46	47	48	49	50	51	52	53	54	55	56
Sfp PPTase inh	-7%	32%[activator]	-2%	-9%	-24%	23%	-23%	3%	-23%	-10%	-3%	7%
Menin MLL FP FL	-1.3	-4.4	1.4	0.0	-0.3	-3.1	3.3	-2.4	-4.0	-5.1	-5.1	0.0[11.7 µM]

57) COc1cccc(-c2cc(NCc3ccccc3)ncn2)c1
58) O=C(Oc1ccccc1)N1CCC2(CC1)CCN(c1ccccc1)CC2
59) CCCCC/C=C\C/C=C\CCCCCCCC(=O)NC(C)C(=O)O (stereo not drawn)
60) N#CCCn1c(=O)c(CCc2ccccc2)nc2cnc(Oc3ccccc3)nc21
61) COc1ccc(NC(=O)N2CC3(CCN(C(=O)c4cc(C(F)(F)F)cc(C(F)(F)F)c4)CC3)C2)cc1
62) CCN(CC)CCSC(=O)C(c1ccccc1)c1ccccc1
63) CCC1=C2CC[C@H]3C(=O)N(CC)C(=O)[C@H]3[C@H]2[C@@]2(C)C(=NCCc3c[nH]c4ccccc34)OC(=O)N2C1=O
64) Cn1c(=O)c(-c2ccc(Cl)cc2)nc2cnc(Oc3ccccc3)nc21

Compound	57	58	59	60	61	62	63	64
Sfp PPTase inh	5%	-1%	11%	6%	13%	-15%&14%	9%	-7%
Menin MLL FP FL	-5.9	-1.6	-3.3	-4.4	3.4	7.8&0.3	3.4	-1.2

65) N[C@@]1(C(=O)O)CN[C@H](C(=O)O)C1
66) CN1CCN(c2cc(-c3ccoc3)ncn2)CC1
67) CN(C)c1ncc2nc(-c3ccccc3)c(=O)n(C3CC3)c2n1
68) C=C1CCC(O)C/C1=C\C=C1/CCCC2(C)C1CCC2C(C)/C=C/C(C)C(C)C (stereo not drawn)
69) CCCn1c(-c2ccc(F)cc2)nc2c(NCC(C)(C)CN(C)C)nc(C)nc21
70) COc1c2ccoc2nc2c(OC)c(O[C@@H]3O[C@H](C)[C@@H](O)[C@@H](O)[C@H]3O)ccc12
71) CC(C)CCCC(C)N (stereo not drawn)
72) COc1ccc(NC(=O)N2CCCC3(CCN(C(=O)c4cnccn4)CC3)C2)cc1

Compound	65	66	67	68	69	70	71	72
Sfp PPTase inh	-20%	?	-20%	-13%	-4%	6%	11%	14%
Menin MLL FP FL	-12	-4.5	-1.3	-2.3	0.5	0.0	-11	0.6

73) C=C1/C(=C\C=C2\CCCC3(C)C2CCC3C(C)/C=C/C(O)C2CC2)CC(O)CC1O (stereo not drawn)
74) CNC(=S)NCCCCc1cnc[nH]1
75) COC(=O)NC(c1cccc(C)c1)[C@]1(C(C)=O)CCOC1=O (stereo partly drawn)
76) COc1ccc2c(c1)C(=O)[C@H](OC(=O)Nc1ccc(C)c(Br)c1)[C@@H](c1ccc(OC)c(Br)c1)O2

Compound	73	74	75	76
Sfp PPTase inh	?	?	2%	11%
Menin MLL FP FL	3.1	-1.3	-1.7[11.7 µM]	-2.5
